From PubChem BioAssay
Vaccinia mCherry: inhibitors of vaccinia virus infection (mCherry reporter signal). Vaccinia virus mCherry reporter infection, fluorescence; about a quarter of the inactives have no number. Potency, µM (doses to about 36.5 µM), inactives show at the highest dose activity change, negative = inhibition, usual class: inhibitors. actives 0.63% (n = 310,000). AID 720579; active = well fitted inhibition curve with a large enough effect; inconclusive = small, poorly fitted or top-dose-only effect; inactive = no such curve, though single readings can be large or run the other way; tested in A549 cells; further: nearly all actives have a fitted effect of over 35% in size; inactives centre near -10
Vaccinia Venus: vaccinia inhibition (Venus reporter). actives 0.46% (n = 330,000). Potency, µM (top dose mostly 36.5 µM), inactives show at the top dose activity change, negative = inhibition, usual class: inhibitors. Vaccinia virus Venus reporter expression, fluorescence; active means well fitted inhibition curve with a large enough effect; inconclusive means small, poorly fitted or top-dose-only effect; inactive means no such curve, though single readings can be large or run the other way; tested in A549 cells; further: nearly all actives have a fitted effect of over 30% in size; inactives centre near -10
* = called active by the depositor; i = inactive; ? = inconclusive; . = no result given; & = joins results of further samples; [ ] = another dose, or the depositor's remark. On the % scale 0 is the no-effect control and ±100 the full control effect; potency means the concentration at half of the fitted maximal effect.

Fields – Vaccinia mCherry	Vaccinia Venus
> CC[C@H](C)/C=C/C1=CC2=C(Cl)C(=O)[C@@]3(C)OC(=O)C(C(=O)[C@H](C)[C@@H](C)O)=C3C2=CO1
 : -22%	?
> COc1ccc(-c2nnc(SCC(=O)Nc3cc(F)ccc3C)o2)cc1
 : -9%	-2%
> CCN(CC)CC(=O)Nc1c(C)cc(C(C)(C)C)cc1C
 : .	-18%
> O=S(=O)(c1ccc(Br)cc1)c1nnn2c1nc(NCc1ccc3c(c1)OCO3)c1sccc12
 : -15%	-21%
> COC(=O)C1CCN(C(=O)c2cc3c(=O)n4cccc(C)c4nc3n2Cc2ccccc2)CC1
 : ?	?
> CCc1cccc(C)c1NC(=S)N(CCCN1CCN(C)CC1)Cc1cccs1
 : -10%	-4%
> Cc1ccc(NC(=O)C2C3C=CC4(O3)C2C(=O)N(CCCN2CCCC2)C4C(=O)NC2CCCCC2)cc1Cl (stereo unspecified)
 : i	-3%
> CC(C(=O)NCc1ccccc1)N(Cc1ccccc1Cl)C(=O)c1snc(C(N)=O)c1N (stereo unspecified)
 : 0%	0%
> CCC(CC)C(=O)N1CCc2cc(OC)c(OC)cc2C1COc1ccc(C(=O)OC)cc1 (stereo unspecified)
 : -3%	-1%
> CC[C@H](C)[C@@H]1NC(=O)c2cc([N+](=O)[O-])cc(I)c2NCC[C@@H](C(N)=O)NC(=O)[C@H](CCCN=C(N)N)NC1=O
 : i	-7%
> Cc1cnc(C(=O)OCc2cc(=O)n3c(C)cccc3n2)cn1
 : i	7%
> CCCS(=O)(=O)N1CCN(C(=O)CCC2CCCC2)CC1
 : 5%	11%
> Cc1ccc(-c2nc(C)c(CCNS(=O)(=O)c3ccc(F)c(C(F)(F)F)c3)s2)cc1
 : -21%	-15%
> Cn1c(Sc2ccc(Cl)cc2)c(C=O)c2ccccc21
 : .	-14%
> Cc1cc(C)c2c(=O)[nH]n(C(C)C)c2n1
 : -13%	-7%
> NC(=O)N/N=C/c1ccc(-c2ccc(S(=O)(=O)Nc3ncccn3)cc2)o1
 : i	-6%
> CCOc1ccc2c(c1)C(=O)c1cc(OCC(=O)O)ccc1-2
 : i[7.34 µM]	0%[7.34 µM]
> CCOC(=O)c1cnn(-c2ccccc2)c1-n1cccc1C(=O)C(=O)N(C)C
 : -10%	-5%
> N#CC1=C(N)OC2=C(C(=O)CC(c3ccco3)C2)C1c1ccc(OCc2c(F)cccc2Cl)cc1 (stereo unspecified)
 : .	-19%
> CCN(c1ccccc1)S(=O)(=O)c1c(-c2ccc(C)cc2)csc1C(=O)OC
 : -6%	-6%
> Cc1ccc(Cn2c(CN3CC(C)OC(C)C3)nc3c2c(=O)n(C)c(=O)n3C)cc1 (stereo unspecified)
 : -12%	-6%
> CN(C(=O)c1cccc(Br)c1)C1CCS(=O)(=O)C1 (stereo unspecified)
 : i	3%
> CCOc1cc(C(=O)NCc2ccc3c(c2)CCN3C(=O)CC)cc(OCC)c1OCC
 : -8%	-4%
> COc1ccc(-c2cn(Cc3cccc(OC)c3)nn2)cc1
 : -8%	-20%&-20%
> Cc1nn(C)c(C(=O)N/N=C/c2ccc(-c3ccccc3)cc2)c1Cl
 : i	-4%
> CCn1c(SCc2nc3ccccc3[nH]2)nnc1-c1cnccn1
 : -12%	-7%
> Cc1ccccc1C(=O)N1c2ccccc2OCC1C(C)(C)C (stereo unspecified)
 : ?	2%
> Cc1ccc(C(=O)Nc2sc(C)c(C)c2C(=O)c2ccccc2)cc1
 : -12%	-5%
> COc1ccc(COC(=O)c2ccc(Cl)c(S(=O)(=O)N3CC(C)OC(C)C3)c2)cc1 (stereo unspecified)
 : -20%	-14%
> Cc1cccc2nc(COc3ccc4ccccc4c3Br)cn12
 : -5%	-5%
> CC1(C)C(=O)OC(c2cccn2-c2ccc([N+](=O)[O-])cc2)C(C)(C)C1=O (stereo unspecified)
 : -15%	0%
> O=C(/C=C/c1ccccc1)NCc1ccco1
 : -5%	-2%
> CC(C)(C)c1ccc(OCCCn2ccnc2)cc1
 : i	-4%
> O=c1cc(CCl)nc2sc3ccccc3n12
 : -9%	-6%
> COc1cccc(/C(O)=C2/C(=O)C(=O)N(CCN(C)C)C2c2ccc(Br)cc2)c1 (stereo unspecified)
 : -10%	-5%
> O=C(CCc1ccncc1)NC1CCCc2c1cnn2-c1ccc(F)cc1F (stereo unspecified)
 : -4%	-12%
> Cc1cc(=O)[nH]c(SCC(=O)N2CCN(C(c3ccccc3)c3ccccc3)CC2)n1
 : -18%[1.46 µM]	-27%
> O=S(=O)(NCC(O)COCc1ccco1)c1cccs1 (stereo unspecified)
 : -1%	-15%
> Cc1nn(-c2ccccc2)c2c1N(CCCC(=O)NCc1ccccc1)C(=O)CS2
 : -15%	-8%
> COc1ccc(C(=O)Nc2ccccc2N2CCN(C(=O)C(C)C)CC2)cc1Cl
 : -10%	-19%
> O=C(COc1ccc(Cl)cc1)Nc1cnn(Cc2c(Cl)cccc2Cl)c1
 : .	-28%
> Cc1cc(NC(=O)CCC(=O)N(Cc2ccco2)C(C)(C)C(=O)NC2CCCCC2)no1
 : -10%	-11%
> COc1ccc(CNC(=O)C(C)OC(=O)CN2C(=O)COc3ccccc32)cc1 (stereo unspecified)
 : -10%	-4%
> CC(=O)O[C@@H]1[C@@]2(C)O[C@H]2CC[C@]23O[C@H]2[C@H](OC3=O)C2=C(C)C(=O)O[C@@]21O
 : i	-16%
> CCOC(=O)c1c(C)[nH]c(C(=O)/C(C#N)=C/c2ccc(OCC)cc2)c1C
 : i	-1%
> CCCCC(=O)OCC(=O)Nc1cccc(S(=O)(=O)NC2=NCCCCC2)c1
 : -5%	1%
> O=C(CSc1nc2c(c(=O)[nH]1)CN(Cc1ccc(F)cc1)CC2)Nc1ccccc1Cl
 : -8%	1%
> O=C(CCCl)N(Cc1nc2ccccc2c(=O)[nH]1)Cc1cccs1
 : ?	?
> Cn1c(=O)oc2cc(C(=O)c3ccccc3)ccc21
 : .	-8%
> CCC(C)(C)NC(=O)C(c1ccccc1Cl)N(C(=O)CCC(=O)Nc1cc(C)on1)C(C)(C)C (stereo unspecified)
 : -10%	-6%

Carrying on:
Fields – Vaccinia mCherry	Vaccinia Venus
> Cc1onc(-c2c(F)cccc2Cl)c1C(=O)N1CCN(c2ncccn2)CC1
 : i	1%
> O=C1CC(=C(c2ccccc2)c2ccccc2)C(=O)N1CCN1CCN(c2cccc(Cl)c2)CC1
 : .	-17%
> CC(Oc1ccc(Cl)cc1Cl)C(=O)NCCCCc1ccccc1 (stereo unspecified)
 : -5%	-2%
> O=c1c2c(n3nnnc3n1-c1ccccc1)-c1ccccc1CC21CCCC1
 : .	-9%
> Cc1ccc2c(c1)N(CC(=O)OC(CC(C)C)C(=O)NC1CCCC1)C(=O)CO2 (stereo unspecified)
 : ?	-1%
> OC(c1ccc(Cl)cc1)c1ncc(-c2cccc(C(F)(F)F)c2)[nH]1 (stereo unspecified)
 : ?	?
> Cc1cc(C)n2c(Nc3c(C)cccc3C)c(CC(C)C)nc2n1
 : 14%	-8%
> CCOc1ccc(C2C(C(=O)Nc3ccc(OC)cc3)=C(C)Nc3nc(SCc4ccc(Cl)cc4)nn32)cc1 (stereo unspecified)
 : -13%	-2%
> CC(C)N(Cc1nc(-c2ccc(Cl)cc2)no1)C(=O)c1ccc(C(C)(C)C)cc1
 : 3%	2%
> O=C(COc1ccc(S(=O)(=O)N2CCOCC2)cc1Cl)NCCCn1ccnc1
 : -5%	-2%
> O=C(CSc1ccc(-c2ccco2)nn1)c1cccc([N+](=O)[O-])c1
 : i	-11%
> Cc1ccc2[nH]c3c(=O)[nH]ncc3c2c1
 : -20%	-26%
> CCc1ccccc1NC(=O)Nc1c[nH]c(=O)[nH]c1=O
 : 3%	10%
> Cc1ccc([C@H]2C(C(=O)O)=C[C@@H](CC3CCCC3)N2S(=O)(=O)c2ccc(C)cc2)cc1
 : i	-19%
> COc1ccc(NC(=O)N2CCCC2C(=O)NCc2ccc(C)cc2)cc1 (stereo unspecified)
 : -5%	-13%
> O=C1CCCC/C=C\C[C@H](CC(=O)N(CCO)Cc2ccccc2)C(=O)N2CCC[C@@H]2CO1
 : -27%	-9%
> C=C(C)COc1ccc(-c2nc(N)ncc2Oc2ccc(OC)cc2)c(O)c1
 : -21%	-22%
> Cc1cc(S(=O)(=O)N2CC(=O)N(CCc3ccccc3)C(=O)C2)ccc1F
 : -12%	-8%
> OCCN1CCN(C2CCC(c3ccc(F)cc3)c3ccc(F)cc32)CC1 (stereo unspecified)
 : ?	?
> O=C(O)c1cc(NC(=O)c2ccco2)cc(NC(=O)c2ccco2)c1
 : -4%	8%
> COc1ccc(C2=NN(C(=O)CCCC(=O)O)C(c3cn(-c4ccccc4)nc3-c3ccccc3)C2)cc1 (stereo unspecified)
 : i	-7%
> O=C(NCCCN1CCCC1)Nc1cccc2ccccc12
 : -6%	-13%
> CC1CCCCC1NC(=O)c1ccc(CSc2nc3ccncc3[nH]2)cc1 (stereo unspecified)
 : -10%	-8%
> CCCCOC(=O)c1cccnc1
 : i	-2%
> CCOc1ccc(-n2cnnn2)cc1S(=O)(=O)Nc1c(C)cccc1C
 : i	-13%
> Cc1c(C(=O)NCc2ccccn2)sc2nc(-c3ccccc3)cn12
 : i	-7%
> COC(=O)c1cccc(CN2C(=O)SC(Nc3ccc(C)cc3)C2=O)c1 (stereo unspecified)
 : -9%	0%
> COc1ccc(CC[n+]2cc(/N=C(\C)[O-])on2)cc1OC
 : -15%	-6%
> COc1ccc(NC(=O)c2cc(-c3cc(F)ccc3OC)n[nH]2)c(C)c1
 : -10%	-4%
> COc1ccc(S(=O)(=O)N2CCN(C(=O)c3ccc([N+](=O)[O-])o3)CC2)cc1
 : -18%	?
> O=c1c(=O)n(Cc2ccc(Cl)cc2)ccn1Cc1ccc(F)cc1
 : 5%	3%
> CCCOc1ccccc1C1CC(=O)NC2=C1C(=O)CCC2 (stereo unspecified)
 : .	-24%
> CCc1ccc(CNC(=O)C(=O)NCC2CCCO2)cc1 (stereo unspecified)
 : -5%	-10%
> O=C(Cn1cc(S(=O)(=O)N2CCCC2)c(S(=O)(=O)N2CCCC2)c1)Nc1ccccc1
 : -2%	0%
> COc1ccc(S(=O)(=O)N2CCN(Cc3ccccc3OC)CC2)cc1
 : i	-9%
> O=C(c1ccccc1)N1CCN(Cc2ccc3c(c2)OCO3)CC1
 : -15%	-7%
> CCN(CC(=O)Nc1c(F)cccc1F)C(=O)CSCc1c(C)noc1C
 : -19%	-9%
> Cc1ccc(NC(=O)c2ccc(Oc3ncccn3)cc2)cc1
 : i	-8%
> COC(=O)c1cc2oc3ccccc3c2n1CC(=O)Nc1ccc(Cl)cc1F
 : ?	-18%
> Cc1ccc(C)c(NC(=O)CCC(=O)NNC(=O)COc2cc(C)ccc2C)c1
 : i	-7%

Single records (already shown).
`Cc1cc(=O)[nH]c(SCC(=O)N2CCN(C(c3ccccc3)c3ccccc3)CC2)n1` is entered as Vaccinia mCherry: -18%[1.46 µM]; Vaccinia Venus: -27%
`CC(Oc1ccc(Cl)cc1Cl)C(=O)NCCCCc1ccccc1` (stereo unspecified) is entered as Vaccinia mCherry: -5%; Vaccinia Venus: -2%

(next part)
Fields – Vaccinia mCherry	Vaccinia Venus
> O=C(CCCCn1c(=O)[nH]c2ccccc2c1=O)N1CCN(c2cccc(C(F)(F)F)c2)CC1
 : ?	?
> O=C(NCc1ccc(Cl)cc1Cl)C1CC(=O)N(Cc2ccccc2)C1 (stereo unspecified)
 : -11%	0%
> CCSC1=NC(=O)/C(=C2/C=Cc3ccccc3N2CC)S1
 : .	-2%
> Cn1c2ccccc2c2ncn(CCCN3CCOCC3)c(=O)c21
 : -18%	-6%
> Cc1ccccc1NC(=O)Oc1cccc(OC(=O)c2ccccc2)c1
 : -17%	-6%
> COc1cccc(-c2sc3ccc(OC)cc3c2-c2ccc(OCCN3CCCC3)cc2)c1
 : i	0%
> Cc1cccc(N2C(=O)CC(N3CCN(c4ccccc4)CC3)C2=O)c1 (stereo unspecified)
 : i	-6%
> Cc1nn(CCC(=O)NCc2ccc(Cl)cc2)c(=O)c2nn(-c3ccccc3)c(C)c12
 : -18%	-17%
> COc1ccccc1OCCNC(=O)c1cc([N+](=O)[O-])cc([N+](=O)[O-])c1
 : 1%	12%
> Cc1cc(C)c(C#N)c(SCc2ccc(C#N)cc2)n1
 : .	7%

Entries above with an NH in an aromatic ring:
Fields – Vaccinia mCherry	Vaccinia Venus
> Cc1cc(C)c2c(=O)[nH]n(C(C)C)c2n1
 : -13%	-7%
> CCn1c(SCc2nc3ccccc3[nH]2)nnc1-c1cnccn1
 : -12%	-7%
> Cc1cc(=O)[nH]c(SCC(=O)N2CCN(C(c3ccccc3)c3ccccc3)CC2)n1
 : -18%[1.46 µM]	-27%
> CCOC(=O)c1c(C)[nH]c(C(=O)/C(C#N)=C/c2ccc(OCC)cc2)c1C
 : i	-1%
> O=C(CSc1nc2c(c(=O)[nH]1)CN(Cc1ccc(F)cc1)CC2)Nc1ccccc1Cl
 : -8%	1%
> O=C(CCCl)N(Cc1nc2ccccc2c(=O)[nH]1)Cc1cccs1
 : ?	?
> OC(c1ccc(Cl)cc1)c1ncc(-c2cccc(C(F)(F)F)c2)[nH]1 (stereo unspecified)
 : ?	?
> Cc1ccc2[nH]c3c(=O)[nH]ncc3c2c1
 : -20%	-26%
> CCc1ccccc1NC(=O)Nc1c[nH]c(=O)[nH]c1=O
 : 3%	10%
> CC1CCCCC1NC(=O)c1ccc(CSc2nc3ccncc3[nH]2)cc1 (stereo unspecified)
 : -10%	-8%
> COc1ccc(NC(=O)c2cc(-c3cc(F)ccc3OC)n[nH]2)c(C)c1
 : -10%	-4%
> O=C(CCCCn1c(=O)[nH]c2ccccc2c1=O)N1CCN(c2cccc(C(F)(F)F)c2)CC1
 : ?	?
